Rango complex inh: inhibitors of Rango-importin beta complex formation. Potency, µM (titrated, usually from 92.2 µM), without a hit: at the top dose inhibition of complex formation. Q14974. 0.031% of 340,000 active. Rango CFP/YFP FRET sensor + importin beta, 45 min; active = rising FRET ratio curve, often small or poorly fitted; inconclusive = mostly compound fluorescence or quenching in the first reads; inactive = flat curves in all reads;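 also: potency is read from the fitted curve at half-maximal effect; 0% = DMSO wells and 100% = buffer wells lacking importin beta; nearly all actives have a fitted effect of over 15% in size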
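FRET biosensor Rango (snurportin 1 IBB between N-terminal EYFP and C-terminal Cerulean), 50 nM in PBS/1 mM DTT/0.02% Tween-20/0.1% BSA, preincubated 5 min RT with compound; 0.125 microM importin beta added, 45 min RT, CFP/YFP FRET ratio read.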
miR-21 reporter: miR-21 reporter, rising signal | HeLa miR-21 FLuc reporter, luciferase, 48 h | Potency, µM (top dose mostly 38.3 µM), inactives show at the highest dose reporter change, positive = more light | 340,000 tested, under 10 active; active = well fitted rising curve with a large enough effect; inconclusive = small, poorly fitted or top-dose-only effect; inactive = no such curve, though single readings can be large or run the other way;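 also: % of control where 0% means no effect; miR-21 action dims this reporter so a rising signal means less miR-21 action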
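HeLa cells endogenously expressing miR-21, stably carrying CMV-driven firefly luciferase with a downstream miR-21 binding site, 2000 cells/well. Titrations up to approximately 40 uM, 48 hours; luciferase luminescence read.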
Rango dissoc inh: inhibition of RanGTP-driven Rango-importin beta dissociation; Biochemical FRET Rango-importin beta, RanGTP-induced dissociation; Potency, µM (series often up to 46.1 µM), for the others: top-dose activity change, negative = inhibition; 0.071% of 340,000 active; AID 540253; active means falling FRET ratio curve, often poorly fitted, with flat reads before Ran was added; inconclusive means other falling curves, or compound fluorescence or quenching; inactive means flat or rising ratio curve;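 also: potency is read from the fitted curve at half-maximal effect; % of control where 0% means no effect; nearly all actives have a fitted effect of over 45% in size; -100% = wells without RanGTP and RCC1; the record marks most hits as doubtful in a second field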
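Rango FRET biosensor (snurportin-1 IBB flanked by N-terminal EYFP and C-terminal CFP10) at 0.1 uM, with 0.25 uM importin beta in PBS, 1mM DTT, 0.02% Tween-20, 0.1% BSA. 0.6 uM Ran, 2mM GTP and 0.2 uM RCC1 were then added for 45 min at room temperature. Inhibition read as loss of FRET rise.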
GLA inh pH 4.5: blocks human alpha-galactosidase A at pH 4.5; P06280; purified enzyme, 4-MU-alpha-Gal fluorescence, pH 4.5; activity change, negative = inhibition, % at 105 µM; 230,000 tested, under 10 active; AID 1467; inconclusive = small, poorly fitted or top-dose-only inhibition, or a rising curve; inactive = flat fitted curve, though single readings scatter; no compound was filed as active;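 also: 0% = full activity with enzyme and -100% = basal without enzyme; dose as in the result columns while the protocol names 77 µM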
Target sequence (P06280 whole entry, looked up): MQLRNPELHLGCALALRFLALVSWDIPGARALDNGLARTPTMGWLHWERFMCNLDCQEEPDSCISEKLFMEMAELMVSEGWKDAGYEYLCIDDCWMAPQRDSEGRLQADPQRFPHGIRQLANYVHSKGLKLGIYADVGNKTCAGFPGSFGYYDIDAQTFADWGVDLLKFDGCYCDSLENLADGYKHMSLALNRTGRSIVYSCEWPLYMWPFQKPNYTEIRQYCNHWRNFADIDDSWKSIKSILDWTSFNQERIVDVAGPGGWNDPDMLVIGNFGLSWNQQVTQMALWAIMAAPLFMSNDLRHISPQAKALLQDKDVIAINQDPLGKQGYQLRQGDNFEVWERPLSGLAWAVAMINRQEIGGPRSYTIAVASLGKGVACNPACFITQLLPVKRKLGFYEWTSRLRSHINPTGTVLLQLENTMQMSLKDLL
* marks the source's active call; other numbers are inactive results; ? = inconclusive; nt = no result given; & = joins results of further samples; [ ] = another dose, or the depositor's remark.

compound | Rango dissoc inh | GLA inh pH 4.5 | miR-21 reporter | Rango complex inh
CC1(C)Oc2ccc3ccc(=O)oc3c2[C@@H](O)[C@H]1O | 2% | nt | nt | 2.2%
CCOc1ccc(NC(=O)CC2C(=O)N(c3ccccc3)C(=O)N2Cc2ccccn2)cc1 (stereo not drawn) | -4% | 10 | -1% | 2.5%
Nc1ccc(-n2nc(C(F)(F)F)cc2C(F)(F)F)cc1 | -5% | -9 | 1% | 1.9%
COc1cc(/C=N/NC(=O)C(=O)NCc2cccnc2)cc(OC)c1OC | -1% | -10 | 2% | 0.2%
O=C(Nc1nnc(-c2ccco2)o1)c1ccc(Cl)cc1 | 16% | 4 | -6% | 0.0%
COCc1nnc(NC(=O)c2ccccc2[N+](=O)[O-])s1 | -4% | -7 | -1% | 5.7%
CCOc1ccc(S(=O)(=O)NCCC(=O)NCC(c2cccs2)N(C)C)cc1 (stereo not drawn) | -12% | nt | nt | ?
O=C(Cn1cnc2ccccc2c1=O)OCC(=O)c1ccc2c(c1)OCCO2 | 2% | -4 | -12% | 5.3%
CC(C)(C)NC(=O)COc1coc(CN2CCN(Cc3ccccc3)CC2)cc1=O | 18% | nt | 0% | 12%
CC(C)OCC(O)CN1CCN(CCN2C(=O)c3cccc4cccc(c34)C2=O)CC1 (stereo not drawn) | ? | nt | -1% | ?
Cc1cc(C)c(C(=O)NCC2CCCO2)c(C)c1C(=O)NCC1CCCO1 (stereo not drawn) | -9% | nt | 0% | -1.5%
CCOC(=O)c1nn(-c2ccc(F)cc2)c2nc(CC(C)C)c(C#N)c(=O)n12 | 8% | 3 | -3% | -1.0%
COC(=O)c1cccc(NS(=O)(=O)c2ccc(NC(C)=O)cc2)c1C | 2% | -2 | -11% | 3.3%
CN(CC(=O)Nc1cc(S(=O)(=O)N2CCCC2)ccc1Cl)Cc1ccc2c(c1)OCO2 | 27% | nt | nt | 0.3%
Cc1cccc(C)c1NC(=O)C(NC(=O)CN1C(=O)c2ccccc2C1=O)c1ccccc1 (stereo not drawn) | 1% | 2 | -6% | -1.1%
CCOc1ccc2[nH]c(O)c(NC(C)=O)c2c1 | 6% | 4 | -3% | 5.6%
CN(C)CCCCCCCCCCC(=O)/C=N/O | 6% | nt | nt | -1.9%
O=C(Nc1ccccc1)c1ccc(S(=O)(=O)N2CCC(C(=O)O)CC2)cc1 | -3% | nt | 0% | -1.2%
O=C(Nc1ccc(Br)c(C(F)(F)F)c1)c1ccccc1 | -2% | -12 | -2% | -3.5%
O=C1C=CC2C(c3ccc4c(c3)OCO4)CC1N2Cc1ccccc1 (stereo not drawn) | -9% | -1 | 1% | -2.0%
CCCCn1c(SCC(=O)Nc2cc(NC(=O)c3ccco3)ccc2C)nc2ccccc2c1=O | 16% | -4 | -12% | 0.3%
Cc1ccccc1OCC(=O)Nc1nc(C)c(C(=O)N(C)C)s1 | 5% | 2 | -39% | 0.5%
COc1ccc(N(CC(=O)Nc2cc(Cl)ccc2OC)C2=NC3CS(=O)(=O)CC3S2)cc1 (stereo not drawn) | 1% | nt | 2% | 1.3%
CCS(CC)=NS(=O)(=O)c1ccc(NC(C)=O)cc1 | 9% | -14 | 0% | 5.0%
Cc1nn(C)c(C)c1NC(=O)c1cc2nc(-c3ccco3)cc(C(F)(F)F)n2n1 | -28% | -20 | -10% | ?
O=C(CN1C(=O)C2C3C=CC(C3)C2C1=O)Nc1ccc(S(=O)(=O)N2CCCCC2)cc1 (stereo not drawn) | -5% | -2 | 1% | -1.0%
O=C(N[C@H](Cc1cc(=O)[nH]c2ccccc12)C(=O)O)c1ccc(Cl)cc1 | 9% | nt | 0% | 2.7%
O=C(/C=C/c1ccccc1)Nc1ncn[nH]1 | ? | -9 | -3% | -1.9%
COc1ccc(C(=O)N2CCN(CCNC(=O)C(=O)Nc3ccc(F)cc3)CC2)cc1OC | 1% | nt | -8% | 2.2%
CCn1c(SCC(=O)n2c(C)c(C)c3ccccc32)nnc1-c1ccco1 | 2% | 1 | -2% | -4.2%
CC(=O)c1cccc(S(=O)(=O)N2CCC(C(=O)NC3CCCC3)CC2)c1 | -9% | nt | nt | 1.3%
O=[N+]([O-])c1ccc(N2CCN(S(=O)(=O)c3cnc[nH]3)CC2)cc1 | -8% | nt | 5% | 3.6%
O=C(c1ccccc1)N1CCOC12CCN(c1ncc(C(F)(F)F)cc1Cl)CC2 | 9% | 0 | -2% | -0.2%
CC(=O)C1=C(C)N(CC2CC2)C(=O)N[C@H]1c1ccc(Br)cc1 | 37% | 1&-13 | -2% | -3.0%
CCCCNC(=O)c1ccc2c(c1)ncn2C1CCCCC1 | 6% | -7 | -33% | -1.9%
O=C1CCCC2=C1C(c1ccccc1)CC(=O)N2c1ccc(F)cc1F (stereo not drawn) | 1% | 7 | -1% | -4.6%
CCN(C(=O)CN1C(=O)NC(c2ccccc2)(c2ccccc2)C1=O)c1ccccc1 | -6% | nt | 23% | -1.7%
COc1cc(C2C(C#N)=C(N)Oc3cc4c(cc32)OCO4)cc(OC)c1OC (stereo not drawn) | -5% | 0 | 22% | -1.7%
COc1ncccc1-c1nnn(-c2ccc(C)cc2)n1 | 18% | 4 | -71% | 1.8%
COC(=O)c1cc(C(=O)OC)n(Cc2ccc(Cl)cc2Cl)n1 | 4% | 1 | -5% | -2.0%
CCCCC[C@@H]1C=C(C(=O)O)[C@H](c2ccc(Br)cc2)N1S(=O)(=O)c1ccc(C)cc1 | 0% | nt | nt | 0.1%
CCc1cc(C(=O)c2ccc(OC)cc2)c(NC(=O)CCC(=O)O)s1 | 5% | -4 | -12% | 2.1%
COc1ccc(C(=O)Nc2cc3c(cc2N2CCOCC2)n(C)c(=O)n3C)cc1OC | 38% | nt | -2% | 0.6%
N#CC1=C(SCC(=O)NCc2ccccc2)NC(=O)CC1c1ccco1 (stereo not drawn) | -19% | -5 | -2% | -1.0%
C=CCOc1ccc(/C=C\c2nc(O)c([N+](=O)[O-])c(=O)[nH]2)cc1OC | -4% | nt | -1% | -0.8%
CN(C)c1cc[n+](CC[n+]2ccc(N(C)C)cc2)cc1 | -4% | nt | nt | -1.1%
CCCc1nc(N)c(C#N)c(N)c1C#N | 3% | 9 | -24% | 1.1%
CCCCN(CC)C(=O)C1CCC(CNS(=O)(=O)c2cccc3nsnc23)CC1 (stereo not drawn) | 10% | nt | 5%&23% | -1.4%
O=C(Cn1nc(CNc2ccc(Cl)cc2)[n+]2c1CCCCC2)c1ccc(Br)cc1 | 31% | -9 | 24% | 1.3%
COc1ccc(-n2nc(C(=O)NCC(=O)NC(C)C)c3ccccc3c2=O)cc1Cl | 5% | nt | 2% | ?

(next part)
compound | Rango dissoc inh | GLA inh pH 4.5 | miR-21 reporter | Rango complex inh
Cc1sc2ncnc(SCC(=O)N3CCC(c4noc5ccc(F)cc45)CC3)c2c1C | -6% | -2 | -1% | -0.1%
Cc1nn(Cc2ccc(Cl)cc2)c(C)c1NC(=O)c1cc(C(C)C)on1 | 10% | nt | ? | 3.2%
O=C(CC1Nc2ccccc2NC1=O)c1ccccc1 (stereo not drawn) | nt | 3 | -43% | nt
CC(C)CCNc1ncnc2c1nnn2Cc1ccccc1Cl | 3% | 4 | 0% | ?
COc1ccc(C2Nc3ccccc3C(=O)N2c2ccc(F)cc2)cc1Cn1nnc2ccccc21 (stereo not drawn) | 2% | 0 | -30% | -2.7%
COc1ccc(S(=O)(=O)N2CCCOC2CNC(=O)C(=O)NCCc2ccco2)cc1C (stereo not drawn) | -3% | nt | 16% | -5.3%
CCOC(=O)c1cc(OC(=O)c2cccc([N+](=O)[O-])c2)n(-c2ccccc2)n1 | -6% | -4 | 7% | 2.8%
COc1ccc(N/N=C(\C#N)C(=N)N2CCOCC2)cc1 | 1% | -16 | -39% | 0.2%
NC1=NC[C@H](Cc2ccccc2)N1CCCCC1CCCCC1 | 14% | -4 | ? | 5.8%
O=C(COc1ccccc1F)NNC(=O)Cn1c(=O)cnc2ccccc21 | 0% | nt | nt | -0.3%
Nc1c(Cl)ncnc1NCc1ccccc1 | -7% | nt | 19% | -0.6%
O=C(CNC(=O)c1ccccc1F)N/N=C/c1cccs1 | 1% | nt | -47% | 2.2%
CC(=O)N1c2ccc(S(=O)(=O)N3CCC(C(=O)Nc4cccc(C)n4)CC3)cc2CC1C (stereo not drawn) | -9% | nt | 25% | -0.3%
Cc1ccc(-n2nc3c(=O)n(CCCC(=O)NCc4ccccc4F)nc(C)c3c2C)cc1 | -3% | nt | -2%&4% | -0.5%
CCc1ccc(N(C(=O)CNC(=O)c2ccco2)C(C(=O)NCC2CCCO2)c2ccccc2)cc1 (stereo not drawn) | 2% | 9 | 0% | 4.2%
O=C(NC(Cc1ccccc1)C(=O)O)/C(=C/c1ccc(Br)cc1)NC(=O)c1ccc(Br)o1 (stereo not drawn) | ? | nt | 0% | ?
N#Cc1cc([N+](=O)[O-])ccc1Oc1cccc(/C=N/NC(=O)c2cccc(Cl)c2)c1 | -12% | -7 | 27% | 0.1%
Oc1ccc(/C=N/Nc2nn3cnnc3c3ccccc23)cc1 | 1% | -5 | -11% | -2.2%
O=C(Nc1nccs1)c1ncc(Cl)c(Cl)c1Cl | -10% | nt | 19% | 0.1%
OCC[C@H]1C[C@H](O)[C@@H](O)[C@]2(CCc3ccccc3CO2)O1 | ? | nt | nt | -3.8%
CCCOc1cc(C)c(S(=O)(=O)N2CCN(C)CC2)cc1C | 1% | 0 | -3% | 3.8%
CCCCN(C(=O)c1c(CC)noc1C)c1c(N)n(CCCC)c(=O)[nH]c1=O | 13% | nt | nt | 0.4%
CCOC(=O)C(=Cc1c[nH]c2ccc(S(=O)(=O)N(C)C)cc12)C(=O)OCC | 12% | -9 | 26% | -5.1%
CCOc1cc(C2NN=C(c3ccccc3)S2)ccc1OCc1ccccc1Cl (stereo not drawn) | -26% | 0 | -60% | 5.5%
COc1ccc(C(C(=O)NC(C)(C)C)N(Cc2ccccc2)C(=O)CCC(=O)Nc2cc(C)on2)cc1 (stereo not drawn) | -6% | -7 | 0% | -4.4%
COc1cccc(CNS(=O)(=O)c2c(C)nc3sccn3c2=O)c1 | -4% | nt | 0% | -1.1%
CC(=O)n1cc([C@H]2C=C(C(=O)N3CCN(Cc4ccccc4)CC3)O[C@@H](OCCCCO)C2)c2ccccc21 | 0% | -4 | -1% | ?
Cc1cc(COc2ccccc2)oc1C(=O)O | -5% | nt | -11% | 8.8%
CSc1ccccc1OCc1cc(C(=O)NC(C)CCn2cccn2)no1 (stereo not drawn) | -7% | nt | -5% | 3.7%
COc1cccc(NC(=O)NCCCCc2ccccc2)c1 | 8% | nt | -19% | -3.0%
Cc1cc(C(=O)N2C(C)CCCC2C)no1 (stereo not drawn) | 5% | nt | -1% | -3.7%
CCCN(CCC)CCCNC(=O)c1nn(-c2cccc(OC)c2)c(=O)c2ccccc12 | -3% | -13[21.1 µM] | -2% | 0.5%
COCCN1C(=O)C(=O)/C(=C(/O)c2cccc(S(=O)(=O)N(C)C)c2)C12C(=O)N(C)c1ccccc12 (stereo not drawn) | 1% | -9 | -8% | 3.1%
CC(C)CCNC(=O)c1ccccc1SCC(=O)NC1CCCCCCC1 | -6% | nt | nt | 0.7%
C=CCN(C(=O)CCC(=O)Nc1cc(C)on1)C(C(=O)NC1CCCC1)c1ccc(Cl)cc1 (stereo not drawn) | 13% | nt | 0% | 0.5%

Structural class: those above with a CF3 group (4)
compound | Rango dissoc inh | GLA inh pH 4.5 | miR-21 reporter | Rango complex inh
Nc1ccc(-n2nc(C(F)(F)F)cc2C(F)(F)F)cc1 | -5% | -9 | 1% | 1.9%
O=C(Nc1ccc(Br)c(C(F)(F)F)c1)c1ccccc1 | -2% | -12 | -2% | -3.5%
Cc1nn(C)c(C)c1NC(=O)c1cc2nc(-c3ccco3)cc(C(F)(F)F)n2n1 | -28% | -20 | -10% | ?
O=C(c1ccccc1)N1CCOC12CCN(c1ncc(C(F)(F)F)cc1Cl)CC2 | 9% | 0 | -2% | -0.2%

This is a subset, so the mix of outcomes need not match the whole.
